AID504770 – growth inhibitors of E. coli YBA685 in a screen for V. cholerae RctB (chromosome II replication) inhibitors | E. coli YBA685 rctB-dependent plasmid, OD600 growth, 3 h; stronger effect = lower value | actives 0.27% (n = 130,000) | AID 504770 | z-score (no concentration beside the values);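 active means z-score under -2 on both plates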;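 further: wells of about 30 µL received 100 nL stock; score is relative to mean and SD of the test wells; the first replicate is given; strong numbers were not always called active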
Ba CapD inh – CapD enzyme inhibition | purified CapD enzyme, fluorescence intensity read-out; stronger effect = lower value; some hits fall short of the stated cut | z-score (test concentration not listed) | actives 0.23% (n = 140,000);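 active means z-score under -4 in either of two replicates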;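 further: stock transfer was 100 nL into about 40 µL; score is relative to mean and spread of the plate; one replicate is shown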
Numbers without * were called inactive; . = not tested or not shown.

The line under a structure holds: AID504770 | Ba CapD inh
COc1ccccc1CN(C)C(=O)CSc1nc2sccc2c(=O)n1C
    -0.75 | .
COC(=O)c1ccc(COc2cc3oc(=O)cc(C)c3cc2Cl)cc1
    -0.75 | 5.4
COC(=O)C1=C(C)OC(N)=C(C#N)C1c1cccc(OCc2ccc(F)cc2)c1 (stereo not drawn)
    . | 0.92
N/C(=N\c1nc(=O)c2ccccc2s1)NC(=O)c1ccc(Cl)c(Cl)c1
    -0.6 | -0.86
CCOC(=O)C1=C(N)N(c2ccc(S(N)(=O)=O)cc2)C2=C(C(=O)CCC2)C1c1ccc2c(c1)OCO2 (stereo not drawn)
    . | -0.82
CCCC#CCCOC(=O)N1CCN(c2ccccc2C)CC1
    . | 0.56
COc1ccccc1NC1CC(=O)N(c2cccc(Cl)c2)C1=O (stereo not drawn)
    0.35 | .
CCOC(=O)C1CCN(C(=O)C(CC)c2ccccc2)CC1 (stereo not drawn)
    -1.4 | 0.03
Cc1nc(-c2ccccc2)sc1C(=O)NN1C(=O)c2c(C(C)C)nc3ccc(Cl)cc3c2C1=O
    . | 21
CC12CCC(=O)N1C(C(=O)NCC13CC4CC(CC(C4)C1)C3)CS2 (stereo not drawn)
    -0.3 | .
CN1CCN(CCCNC(=O)c2sc3ccccc3c2Cl)CC1
    -0.45 | .
CCCCOc1ccc(C2CC(=O)C3=C(C2)c2c(ccc4ccccc24)NC3c2ccc3c(c2)OCO3)cc1 (stereo not drawn)
    . | 0.35
O=C(Nc1nc(-c2cccs2)cs1)C1CC(=O)N(c2ccc3c(c2)OCCO3)C1 (stereo not drawn)
    -0.4 | .
C/C(=N\NC(N)=S)c1ccccc1O
    . | -1.2
O=S1(=O)c2ccccc2S(=O)(=O)N1c1ccc(F)cc1
    . | -0.8

5 neighbouring entries from above, for reference:
The line under a structure holds: AID504770 | Ba CapD inh
COc1ccccc1CN(C)C(=O)CSc1nc2sccc2c(=O)n1C
    -0.75 | .
COC(=O)c1ccc(COc2cc3oc(=O)cc(C)c3cc2Cl)cc1
    -0.75 | 5.4
COC(=O)C1=C(C)OC(N)=C(C#N)C1c1cccc(OCc2ccc(F)cc2)c1 (stereo not drawn)
    . | 0.92
N/C(=N\c1nc(=O)c2ccccc2s1)NC(=O)c1ccc(Cl)c(Cl)c1
    -0.6 | -0.86
CCOC(=O)C1=C(N)N(c2ccc(S(N)(=O)=O)cc2)C2=C(C(=O)CCC2)C1c1ccc2c(c1)OCO2 (stereo not drawn)
    . | -0.82

(list continues)
The line under a structure holds: AID504770 | Ba CapD inh
O=[N+]([O-])c1cc(C(F)(F)F)ccc1NCCNS(=O)(=O)c1ccc2ccccc2c1
    . | 0.08
O=C(NCCc1ccc(Cl)cc1)c1cnn(-c2ccc(Cl)cc2)c1C(F)(F)F
    0.4 | 0.02
CCC(C)c1ccc(NC(=O)COC(=O)/C=C/c2cccs2)cc1 (stereo not drawn)
    -0.75 | -0.9
CC(=O)Oc1ccc(-c2coc3cc(OC(C)=O)cc(OC(C)=O)c3c2=O)cc1
    0.5 | -0.28
O=C1OCCC1OC(=O)C1(c2ccc(Cl)cc2)CCCC1 (stereo not drawn)
    0.6 | -0.27
CCCN(CCC)Cc1nc2c(c(=O)[nH]1)C1(CCCC1)Cc1ccccc1-2
    . | -0.92
CC1(C)c2ssc(=S)c2-c2ccccc2N1C(=O)c1ccc([N+](=O)[O-])cc1
    . | 0.16
COc1ccc(-c2ccnc(SCc3ccc(Cl)cc3Cl)n2)cc1
    -0.1 | 2.1
CC(C)(C)OC(=O)N1C(N)=C(C#N)C2(CCOCC2)c2[nH]c(C(F)(F)F)nc21
    0.7 | -0.045
O=C(Nc1nc2c(s1)Cc1ccccc1-2)C1=COCCO1
    0.95 | -0.23
CCN=c1scc(C)n1/N=C/c1cccs1
    -0.15 | .
CCOC(=O)c1c(NC(=O)c2ccc(Cl)c([N+](=O)[O-])c2)sc(C(=O)Nc2cccc(Cl)c2C)c1C
    . | -0.21
CC1(C)OC2OC(COC(=O)c3cccc([N+](=O)[O-])c3)C3OC(C)(C)OC3C2O1 (stereo not drawn)
    . | 0.14
CCOc1ccc(C(=O)CC(SCc2ccc(Cl)cc2)C(=O)O)cc1 (stereo not drawn)
    0.5 | 0.58
Fc1cc2c(c(CSc3ccc(Cl)cc3)c1)OCOC2
    0.2 | 0.23
CSC1=C(C#N)C(c2ccccc2Cl)C(C(=O)c2cccs2)C(O)(C(F)(F)F)N1 (stereo not drawn)
    -0.35 | 0.12
CC12CCC(C/C1=N\O)C2(C)C (stereo not drawn)
    . | -0.055
CC(C)CCn1c(SCC(=O)NC2CCCC2)nc2ccsc2c1=O
    -1.1 | -0.42
Cn1nc(C(F)(F)F)c(-c2ccccc2)c1NC(=O)c1cccnc1
    0.65 | 0.095
CC(=O)OCCc1c(COC(C)=O)[nH]c(C(=O)OCc2ccccc2)c1C
    -0.7 | 0.015
C=C1/C(=N/O)CC2CC1C2(C)C (stereo not drawn)
    -0.85 | -0.18
CCc1ccc(NC(=O)c2ccccc2)cc1
    0.85 | 0.39
CC(=NCCN1CCOCC1)c1c(CSc2ccc(C)cc2)[nH]n(-c2nc3ccccc3s2)c1=O
    . | 0.04
O=C(Cc1ccc2c(c1)OCCCO2)c1ccc(O)cc1O
    0 | -1.3
COc1ccc(C2CC(c3ccccc3)=NN2C(=O)Cn2c(NCCO)nc3ccccc32)cc1 (stereo not drawn)
    -0.25 | .
COc1ccc(CNC(=O)C2CCN(S(C)(=O)=O)CC2)cc1
    -0.6 | 58
CC(=O)NCCC(=O)Nc1ccc(F)cc1C
    0 | .
O=C(Cn1c2ccccc2c(=O)c2ccccc21)NC(c1ccccc1)c1ccccc1
    . | 22
Cc1ccc(C(=O)Nc2ccc(-c3nc4cc(C)ccc4o3)cc2)cc1
    1.5 | 7.5
CC(C)c1ccc(NC(=O)c2cc(S(=O)(=O)N3CCCC3)cn2C)cc1
    -1 | -0.37
O=C(CSc1nnc(C2CC2)n1C1CC1)c1ccc(CC(=O)N2CCOCC2)s1
    0.15 | .
NC(=NC(=O)c1ccc(Cl)cc1)N1N=CCC1c1ccccc1 (stereo not drawn)
    -0.55 | 0.41
COc1ccc(/C=C2\N=C(c3ccc([N+](=O)[O-])cc3Cl)OC2=O)c(OC)c1OC
    . | 0.27
O=C(Cc1ccccc1)N1CCN(CCN=Cc2c(-c3ccccc3)[nH]n(-c3ccc([N+](=O)[O-])cc3)c2=O)CC1
    . | -0.065
CCOC(=O)c1ccc(NC(=O)CC2SC(=O)NC2=O)cc1 (stereo not drawn)
    . | -0.15
O=S(=O)(NC1CCCC1)c1ccc(-n2cnnn2)cc1
    0.05 | .
COc1ccccc1C(=O)NNc1ncccc1C(F)(F)F
    0 | 0.91
O=C(O)CCc1n[nH]c(=S)[nH]c1=O
    0.25 | .
O=C(Nc1ccc(Br)cn1)Nc1ccccc1C(F)(F)F
    -0.25 | 0.17
CN(C)C(=O)C12CC3(C)CC(C)(CC(C)(C3)C1)C2
    -0.45 | 0.31
CC(C)c1ccc(NC(=O)C2CC(=O)Nc3nc4ccccc4n32)cc1 (stereo not drawn)
    0.5 | -0.32
COc1ccc2c(=O)c(-c3ccc(OC)c(OC)c3)coc2c1
    -1 | 0.11
COc1ccc2nc(SC/C(O)=C(\C#N)C(=O)NCc3ccccc3)[nH]c2c1
    0.3 | .
CCOc1ccc(NC(=O)CSc2nc3cc(C(=O)OC)ccc3c(=O)n2Cc2ccc3c(c2)OCO3)cc1
    . | -0.075
COCCNC(=O)C1CCC(C(=O)NCCOC)CC1 (stereo not drawn)
    -0.95 | 0.28
Clc1cccc(Cl)c1Cn1nnc(-c2ccccc2)n1
    -0.2 | -0.12
N#Cc1ccccc1OCC(=O)O
    -0.3 | -0.17
COc1cccc(Cn2ccn(Cc3ccccc3)c(=O)c2=O)c1
    0 | -0.22
CCc1ccc(C(N)CC(=O)O)cc1 (stereo not drawn)
    -1 | -0.4
CO/N=C(/CNS(=O)(=O)c1ccc(OC)cc1)c1ccc(Cl)cc1
    . | -0.45
O=S(=O)(c1ccc2c(c1)CCO2)N1CC=C(c2ccccc2)CC1
    -1 | -0.02
CC(Nc1nc2nonc2nc1N1CCCC1)c1ccccc1 (stereo not drawn)
    . | -2.4
CC(O)CN1CNC(=S)NC1 (stereo not drawn)
    . | 0.46
c1ccc(-c2nn3cnnc3c3ccccc23)cc1
    0.25 | .
Cc1c(C(=O)NCCCN2CCOCC2)cc(-c2ccccc2)n1-c1ccccc1
    0.5 | -0.34
O=C(O)/C=C/C(=O)N1CCN(Cc2ccccc2)CC1
    -0.55 | 0.16
CN1N=C2c3ccccc3CCC2C1c1ccc(F)cc1 (stereo not drawn)
    -0.25 | 35
CC1=CC(C)(C)NC(=S)N1c1ccccc1
    0.8 | 0.15
CCCCN1CCC1C(=O)OC (stereo not drawn)
    -0.35 | 0.81
N#CC(C(=O)C(F)(F)F)c1ccccc1 (stereo not drawn)
    -0.25 | 0.01

Further results follow:
The line under a structure holds: AID504770 | Ba CapD inh
O=C(NC(=S)NCc1ccco1)c1ccc(Cl)cc1
    -0.25 | 0.015
NC(=S)NC12CC3CC(CC(C3)C1)C2
    0.25 | .
O=C(Nc1ccc(Cl)cc1)C1CCN(S(=O)(=O)c2ccccc2)CC1
    . | -0.12
O=C(NC1CN2CCC1CC2)c1cc(-c2ccc(Cl)cc2)nc2ccccc12 (stereo not drawn)
    . | 2.7
CCOC(=O)c1cc(C(=O)OC)c(C)nc1SCC(=O)OC
    -0.75 | 0.93
CC(=O)Nc1ccc(Sc2ccc(F)cc2)cc1
    0.15 | -0.15
Cc1ccc(CNC(=O)c2oc3ccc(S(=O)(=O)N4CCCC4)cc3c2C)cc1
    -0.7 | -0.08
O=C(c1ccccc1)C1CCN(C(=O)c2c(F)cccc2F)CC1
    . | 0.35
CCOC(=O)c1c(CS(=O)(=O)c2ccccc2)n(C)c2cc(Br)c(O)cc12
    . | -0.42
O=C(Nc1nnc(CCS(=O)(=O)c2ccc(Br)cc2)s1)c1ccccc1Cl
    . | -0.17
C#CC(C)(C)NC(=O)c1sccc1Oc1ccc([N+](=O)[O-])c(C(F)(F)F)c1
    . | -0.63
C=CCOc1ccc(CNn2nnnc2N)cc1
    -0.6 | -0.32
Brc1ccc(CSc2nnc(-c3ccco3)n2-c2ccccc2)cc1
    . | 6.2
O=C(CSc1nnc(CNC(=O)c2c(F)cccc2Cl)o1)NC1CCCCC1
    -1 | -0.2
NS(=O)(=O)c1ccc(NC(=S)NC2CCCCC2)cc1
    -0.95 | -0.32
COc1cc(NC(=O)c2nn3c(c2Br)NC(c2cccs2)CC3C(F)(F)F)cc([N+](=O)[O-])c1 (stereo not drawn)
    . | 0.005
CCn1c(CCC(=O)Nc2nc3ccccc3[nH]2)nc2cc(S(=O)(=O)N(C)C)ccc21
    -0.25 | .
CCc1cc(=O)oc2c(C)c(O)ccc12
    0.3 | 1.2
CCc1ccc(OCC(=O)Nc2ccc3c(c2)N(C(C)=O)c2ccccc2CC3)cc1
    . | -0.095
CCN(CC)P1(=O)OC(c2ccc(F)cc2)=Nc2c1c(C)nn2-c1ccccc1 (stereo not drawn)
    -0.45 | .
Cn1c(S(C)(=O)=O)nc2ccccc21
    -1.2 | .
COC(=O)C1=C(C)NC(C)=C(C(=O)OC)C1C(=O)OCc1cccc(S(=O)(=O)N(C)C)c1
    -0.05 | .
CC1CC(C)CN(C(=O)COC(=O)Cc2cn3ccsc3n2)C1 (stereo not drawn)
    -0.35 | .
O=C1CCCC/C1=C/NC1CCCCC1
    -0.25 | -3.1
CCOc1cccc(N2C(=O)/C(=C\c3ccc(N(CC)CC)cc3OC)C(=O)NC2=S)c1
    . | -0.15
CC(C)(C)N1COc2ccc3c(-c4ccccc4)cc(=O)oc3c2C1
    -1.6 | 0.73
CCCc1cc(=O)oc2cc(OCC(=O)NN)ccc12
    . | 48
CCC1CCCCN1C(=O)Cn1c(=O)n(C2CCCC2)c(=O)c2ccccc21 (stereo not drawn)
    -0.25 | 0.45
COc1cc2[nH]c(=O)n(CCCCCC(=O)NC3CCCC3)c(=O)c2cc1OC
    -0.6 | 33
COc1cc(SC)ccc1C(=O)Nc1nnc(C(F)(F)F)s1
    -0.4 | 2.2
NNc1nc(-c2ccccc2)cc(-c2ccccc2O)n1
    2.2 | -0.15
Cc1ccc(C(=O)O)o1
    1.5 | 0.26
O=C(NCc1ccccc1)C1CCN(C(=O)c2ccccc2)CC1
    -0.5 | -0.05
C/C(NCc1ccncc1)=C(\C#N)C(N)=O
    1.1 | 0.67
C=CCNC(=S)Nc1ccccc1
    -0.4 | 0.85
CCn1c(C(C)Oc2ccc(Cl)cc2)n[nH]c1=S (stereo not drawn)
    1.7 | -0.4
COc1ccc(C(NC(=O)COc2ccccc2)c2cc(Cl)c3cccnc3c2O)cc1OC (stereo not drawn)
    . | 0.34

Exported as tab-separated lines: entries from further up
mol	AID504770	Ba CapD inh
C=CCNC(=S)Nc1ccccc1	-0.4	0.85
Cc1ccc(C(=O)O)o1	1.5	0.26
CCn1c(C(C)Oc2ccc(Cl)cc2)n[nH]c1=S (stereo not drawn)	1.7	-0.4
NNc1nc(-c2ccccc2)cc(-c2ccccc2O)n1	2.2	-0.15

High-throughput results as filed in PubChem.
